VDR inhibitor – inhibitors of human vitamin D receptor; P11473; VDR-SRC2-3 peptide fluorescence polarization, 2 h; Potency, µM, without a hit: max response, negative = inhibition, actives largely listed as inhibitors; 0.93% of 400,000 active; active means well fitted inhibition curve with a large enough effect; inconclusive means small, poorly fitted or top-dose-only effect, or another doubt; inactive means no such curve, though single readings can be large or run the other way; further: series mostly up to about 120 µM
Target sequence (P11473 whole entry, looked up): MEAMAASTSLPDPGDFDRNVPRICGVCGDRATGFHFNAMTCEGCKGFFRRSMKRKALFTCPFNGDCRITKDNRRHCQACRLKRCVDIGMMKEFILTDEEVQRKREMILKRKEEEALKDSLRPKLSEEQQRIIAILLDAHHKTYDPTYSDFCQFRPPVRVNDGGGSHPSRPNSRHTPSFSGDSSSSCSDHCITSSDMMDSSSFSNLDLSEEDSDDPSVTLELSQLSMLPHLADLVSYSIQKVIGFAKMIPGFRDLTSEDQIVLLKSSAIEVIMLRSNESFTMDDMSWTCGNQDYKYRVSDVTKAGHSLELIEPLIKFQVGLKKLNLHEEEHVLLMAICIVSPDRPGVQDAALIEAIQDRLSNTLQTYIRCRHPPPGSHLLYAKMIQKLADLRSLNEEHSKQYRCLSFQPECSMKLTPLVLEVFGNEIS
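After 23 nl compound addition and a short centrifugation, plates sat for 2 hours at ambient temperature; polarization of fluorescence then indicated loss of VDR binding to peptide SRC2-3.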
The depositor's hits bear a star; ? = inconclusive; & = joins results of further samples. On the % scale 0 is the no-effect control and ±100 the full control effect; potency means the concentration at half of the fitted maximal effect. Not all compounds are listed, so the mix of outcomes need not match the whole.

VDR inhibitor	structure
-1%	CCOC(=O)CSc1nnc(-c2c[nH]c3ccccc23)o1
-1%	Cc1nc(C)c(-c2ccc(SCc3ccccc3C)nn2)s1
-3%	Cc1cccc(-n2c(C)cc(/C=C3/C(=N)N4C(c5ccccc5)=CSC4=NC3=O)c2C)c1
-19%	Cc1occc1C(=O)N1CCCC(Nc2ccc(F)cc2)C1 (stereo not given)
4%	COc1ccc(C)cc1NS(=O)(=O)c1ccccc1
18%	O=C(CC1SC(=NC2CCCCC2)NC1=O)Nc1ccccc1 (stereo not given)
-5%	CCC1CCCCN1C(=O)COC(=O)c1n[nH]c2ccccc12 (stereo not given)
6%	O=C(O)CSc1nnc(-c2ccc(S(=O)(=O)N3CCCC3)cc2)n1Cc1ccco1
-1%	CC(Sc1ccccc1)C(=O)NCCc1ccccc1 (stereo not given)
-2%	CC(=Nc1ccc(Br)cc1)c1sc2ccccc2c1O
13%	O=C1N=c2ccccc2=C1c1sc(Nc2ccc(O)cc2)nc1O
6%	O=C(NCc1ccco1)C1CCCN(S(=O)(=O)c2cccc3nonc23)C1 (stereo not given)
?	C#CCOCCOCCOCCNc1nc(N2CCN(C(=O)Cn3cc(CC(C)O)nn3)CC2)nc(N2CCN(C(=O)[C@H](C)n3cc(CCCN=C(N)N)nn3)CC2)n1 (stereo not given in full)
-3%	COc1cc(OC)c(NC(=O)N2CCOCC2)cc1Cl
0%	CCOc1ccc(NC2c3ccccc3C(=O)N2Cc2ccc3c(c2)OCO3)cc1 (stereo not given)
3%	COc1ccc2cnnc(SCC(=O)Nc3ccc(C(=O)O)cc3)c2c1OC
15%	CSc1ccc(-c2nnc(NC(=O)c3ccc4c(c3)OCCO4)o2)cc1
-1%	Cn1nnc(C(O)CNCc2ccc(Cl)cc2)n1 (stereo not given)
8%	O=C(c1ccc(NS(=O)(=O)/C=C/c2ccccc2)cc1)N1CCCCC1
-11%	CCCCCC(=O)NNC1CC(=O)N(c2ccccc2)C1=O (stereo not given)
-29%	COCc1ccc(C(=O)N2CCCC(CCC(=O)NCc3ccccc3F)C2)o1 (stereo not given)
?	O=C(c1ccco1)N(CCC(c1ccccc1)c1ccco1)Cc1ccco1 (stereo not given)
1%	CN(Cc1ccccc1)c1ccc2nnc(-c3ccccc3)n2n1
-5%	COc1ccc(-c2cn3nc(N4CCC(C(=O)Nc5cccc(OC)c5)CC4)sc3n2)cc1
15%	Cc1ccc(C(=O)NNC(=O)CCC(=O)Nc2cccc(Cl)c2C)cc1

Next part, overlapping the part above by four compounds.
VDR inhibitor	structure
?	O=C(c1ccco1)N(CCC(c1ccccc1)c1ccco1)Cc1ccco1 (stereo not given)
1%	CN(Cc1ccccc1)c1ccc2nnc(-c3ccccc3)n2n1
-5%	COc1ccc(-c2cn3nc(N4CCC(C(=O)Nc5cccc(OC)c5)CC4)sc3n2)cc1
15%	Cc1ccc(C(=O)NNC(=O)CCC(=O)Nc2cccc(Cl)c2C)cc1
15%	CCC(Cc1ccccc1)NC(=O)c1oc(=O)c2ccccc2c1-c1ccccc1 (stereo not given)
5%	COc1ccc(CNCCS(=O)(=O)NC2CCCC2)cc1
0%	O=C(Nc1ccc2c(c1)nc1n2CCOC1)c1ccccc1
-10%	CCc1ccc(NC(=O)c2noc3c2CCC3)cc1
5%	O=C(COc1ccc(N2C(=O)c3ccccc3C2=O)cc1)c1ccccc1
10%	O=C1NCC(COCc2ccco2)O1 (stereo not given)
-3%	Clc1ccc(-c2csc(Nc3ccccc3)[n+]2Cc2ccco2)c(Cl)c1
2%	CN(CC(=O)Nc1c(Cl)cccc1Cl)C(=O)CNC(=O)c1ccco1
-22%	COc1cc(NC(=O)CSc2nccc(C)n2)c(C)cc1[N+](=O)[O-]
-2%	CC(=O)NS(=O)(=O)c1ccc(NC(=O)c2cc3c(=O)n4ccccc4nc3s2)cc1
10%	O=C(Nc1ccc(Cl)cc1)N1CCCC(Cn2cccc2)C1 (stereo not given)
-18%	O=c1[nH][nH]cc1C=NCc1cccc(C(F)(F)F)c1
-24%	O=S(=O)(O)c1ccc2c(c1)C(C(Cl)(Cl)Cl)OC(C(Cl)(Cl)Cl)O2 (stereo not given)
7%	CCOc1ccc(N(CC(=O)NCc2ccccc2C)S(C)(=O)=O)cc1
-28%	Cc1cc(C)c(S(=O)(=O)Cc2ccccc2)c(Cl)n1
-8%	O=C(Nc1ccc2c(c1)OCO2)c1cccc(S(=O)(=O)N2CCCC2)c1
-10%	CCCC(=O)Nc1ccc2c(c1)nc(CN1CCCC1)n2C
0%	O=C(CSc1nnc(CCCN2C(=O)c3cccc4cccc(c34)C2=O)n1-c1ccccc1)N1CCCCC1
0%	O=C(c1cccc(F)c1)N1CCC2(CC1)CCN(c1ccc(-c3ccccc3)cc1)CC2
-11%	Cc1csc2nc(CNS(=O)(=O)N(C)C)cn12
3%	Cc1cc(NC(=O)CSc2nnc(-c3c[nH]c4ccccc34)n2-c2ccc(Cl)cc2)no1
2%	Cc1ccc(C)c(N2CCN(C(=O)CCc3nc(-c4ccccc4F)no3)CC2)c1
-14%	CCCCN(C(=O)CCC(=O)Nc1cc(C)on1)C(C(=O)NC(C)(C)C)c1cccc(OC)c1OC (stereo not given)
-5%	Cc1cc[n+](CC(=O)N2CCCc3ccccc32)cc1
-1%	O=C(c1ccc2c(=O)n3c(nc2c1)CCC3)N1CCN(S(=O)(=O)c2ccccc2Br)CC1

Five compounds picked at random from the list so far, as already listed:
VDR inhibitor	structure
-10%	CCCC(=O)Nc1ccc2c(c1)nc(CN1CCCC1)n2C
7%	CCOc1ccc(N(CC(=O)NCc2ccccc2C)S(C)(=O)=O)cc1
15%	CCC(Cc1ccccc1)NC(=O)c1oc(=O)c2ccccc2c1-c1ccccc1 (stereo not given)
-18%	O=c1[nH][nH]cc1C=NCc1cccc(C(F)(F)F)c1
0%	O=C(Nc1ccc2c(c1)nc1n2CCOC1)c1ccccc1

(cont.)
VDR inhibitor	structure
-4%	O=C(CSc1nc2ccccc2c(=O)n1-c1ccc(F)cc1F)Nc1ccc2c(c1)CCC2
1%	Cc1ccc(OCC(=O)NNC(=O)CCc2ccccc2)c(Br)c1
-17%	O=C(NCc1ccccc1)c1cc(-c2cccc(Cl)c2)on1
-22%&-6%	COc1ccc(NC(=O)CN(C)S(=O)(=O)c2cccc3nsnc23)cc1
0%	CCc1cc(=O)oc2c(CNCc3c(F)cccc3Cl)c(O)ccc12
-2%	CCOC(=O)CCC(=O)Nc1ccc(S(=O)(=O)N2CCCCC2)cc1
-1%	NCCC[C@@H](CC(=O)N[C@@H]1CCNC[C@H]1C(=O)N[C@H](CC(=O)N[C@@H](CCC(=O)O)CC(=O)O)Cc1ccccc1)NC(=O)C[C@H](Cc1c[nH]c2ccccc12)NC(=O)[C@@H]1CCCC[C@H]1N
0%	COCCN1CCc2c(C)nc3c(-c4ccc(OC)c(OC)c4)cnn3c21
20%	NC(=O)C1CCN(c2ncnc3c2cnn3-c2cccc(Cl)c2)CC1
-6%	CC(C)(C)OC(=O)N1CCC(c2c(C(=O)NCc3ccccc3)cnn2-c2ccc(F)cc2)CC1
-5%	COc1ccc(-c2nn(C)c(=O)c3ccccc23)cc1CNS(C)(=O)=O
-15%	CN(C)/C=N/c1sccc1C(N)=O
-11%	CCO[C@@H]1OC(C(=O)N2CCN(Cc3ccc4c(c3)OCO4)CC2)=C[C@H](c2ccc(C(F)(F)F)cc2)[C@H]1CCCO
1%	CC1CCc2c(sc3nnn(Cc4cccc(C(=O)OC(C)C)c4)c(=O)c23)C1 (stereo not given)
-3%	Oc1ccc(/C=N/NC2=NCCCCC2)c(O)c1
-6%	CS(=O)(=O)Nc1ccc(Oc2ncccn2)cc1
-10%	OCCN1CCN(c2ncnc3c2c(-c2ccccc2)cn3-c2ccc(Br)cc2)CC1
11%	Cc1ccc(S(=O)(=O)N(CC(=O)Nc2cccnc2)c2cccc(Br)c2)cc1
-3%	COc1ccc(-c2cn(-c3ccc(OC)cc3)c(=S)[nH]2)cc1
-8%	O=C(Cc1ccc(Cl)cc1)NCC(=O)N1CCCCCC1
14%	COc1ccc(F)cc1S(=O)(=O)Nc1cccc(-c2ccc(N3CCCCCC3)nn2)c1
8%	O=C(OCc1nc2ccccc2[n+]([O-])c1C(=O)c1ccccc1)c1cccs1
18%	CC(C)(C)C(=O)Cn1c(NCCO)nc2ccccc21
-21%	COc1ccc(-c2sc3cc4c(cc3c2-c2ccc3c(c2)OCCO3)OCO4)cc1
-6%	CCOC(=O)C1CCN(C(=O)C(C)Oc2ccc(Br)cc2)CC1 (stereo not given)
-3%	COCCN(C(=S)Nc1c(C)cccc1C)C(C)c1cccnc1 (stereo not given)
0%	CCOc1ccccc1/C=N/Nc1nc2c(N)ncnc2n1[C@H]1O[C@@H](CO)[C@H](O)[C@@H]1O
-10%	Cc1sc(NC(=O)C2=COCCO2)nc1-c1ccc(Br)cc1
-8%	COc1ccc(-c2c(C#Cc3ccsc3)c3cc(-c4ccc5c(c4)OCCO5)ccc3n2C)cc1
-9%	Cc1ccc(S(=O)(=O)N2CCC(=O)N(CCO)CC2)cc1
-15%	Cc1nccn1CCCNCc1c(C(=O)N2CCCCCCC2)nc2ccc(Cl)cn12
-8%	CCOC(=O)c1c(C)[nH]c(C)c1S(=O)(=O)N(C)CC(=O)Nc1ccccc1C
1%	COc1ccc(C(=O)Nn2c(CC(C)C)nc3cc(OC)c(OC)cc3c2=O)c(OC)c1
?	CSc1nc(N)nc2c1ncn2CC(=O)NCCCc1ccccc1
-22%	Cc1ccc(S(=O)(=O)N(C)C)cc1NC(=O)c1ccc(-n2cncn2)c([N+](=O)[O-])c1
-7%	CCC(CC)C(=O)Nc1cc(C)c2c(=O)oc3ccccc3c2n1
-5%	Cc1ccc(S(=O)(=O)N(C)Cc2ccc(C(=O)NN=C3C4CC5CC(C4)CC3C5)cc2)cc1
-7%	CCSc1nc(-c2cccs2)nc2ccccc12
8%	COC(=O)c1cc(COc2ccc3oc(C)c(C(=O)OC(C)C)c3c2)c(C)o1
-16%	Cc1ccc(C(CC(=O)c2ccco2)SCCO)cc1 (stereo not given)
-6%	COc1ccc(C2NC(=S)NC(C)=C2C(=O)Nc2ccccn2)cc1OC (stereo not given)
22%	CCOC(=O)c1cnc2cc(Cl)c(OC)cc2c1Nc1ccc(Br)cc1C
-10%	Cc1ccc(OCc2cc(=O)n3c4c(sc3n2)CCCC4)cc1C
-5%	CCCC[C@H]1COCCS(=O)(=O)N1Cc1cccc(Cl)c1
18%	N#CCSc1nnc(-c2cnccn2)n1Cc1ccccc1
13%	CCOC(=O)c1noc2ncnc(Nc3cccc(C(F)(F)F)c3)c12
-11%	Cc1ccc(S(=O)(=O)NCCOC(=O)Nc2sc(=S)n(C)c2C)cc1
-4%	COC(=O)C1=C(C)Nc2nc3ccccc3n2C1c1cc(OC)c(OC)c(OC)c1 (stereo not given)
2%	CS(=O)(=O)c1ccc(Cl)c(NC(=O)C2CC(=O)N(Cc3ccco3)C2)c1 (stereo not given)
-23%	COc1ccc(Cl)cc1NC(=O)CN1c2ccccc2CC1C (stereo not given)

Continued:
VDR inhibitor	structure
-3%	Nc1nnc(SCc2cn3cc(Cl)ccc3n2)s1
-13%	CN(CC(=O)Nc1ccc(F)cc1)C(=O)CN1C(=O)c2cccc([N+](=O)[O-])c2C1=O
5%	COc1cc(/C=C2\SC(=Nc3ccccc3)NC2=O)cc(Cl)c1O
20%	CC(=O)Nc1ccc(S(=O)(=O)NNC(=O)NC23CC4CC(CC(C4)C2)C3)cc1
?	Cc1nc(SCc2cccc(F)c2)[nH]c(=O)c1C#N
8%	COc1ccc2[nH]c3c(c2c1)CCN1C(=O)C(CC(=O)NCc2ccco2)C[C@H](C(=O)N2CCOCC2)[C@@]31CCC1CCCC1 (stereo not given in full)
-17%	CC(=O)NS(=O)(=O)c1ccc(NC(=O)CC23CC4CC(CC(Br)(C4)C2)C3)cc1
-11%	COC(=O)CSc1ncc2c(n1)-c1ccccc1N(Cc1cccc(F)c1)S2(=O)=O
-8%	c1ccc(Cn2cc(CN3CCCCO3)c(-c3ccc4c(c3)OCO4)n2)cc1
-8%&-15%	COc1ccc(-c2ccnc3[nH]n(-c4ccccc4)c(=O)c23)cc1
9%	O=C(NCC(=O)N1CCN(c2ccc(C(F)(F)F)cn2)CC1)c1ccc(Br)o1
-5%	O=c1c2ccccc2nnn1CSc1ccc2c(c1)OCCO2
10%	CC1CC(C)CN(CC(=O)N2CCCc3c2c(=O)oc2ccc(OCc4ccccc4)cc32)C1 (stereo not given)
-4%	Cc1ccc(-c2nnc(NCc3nc4ccccc4[nH]3)c3ccccc23)cc1S(=O)(=O)N(C)C
-2%	COC(=O)c1cnc2c(c1C(=O)OC)c(=O)n(C)c(=O)n2C
11%	COc1ccc(OC2C(=O)N(Cc3ccc4c(c3)OCO4)C2c2sccc2C)cc1 (stereo not given)
-4%	COc1ccc(-c2nnn(Cc3ccccc3)n2)cc1OC
-10%	Cc1ccc(/C=N/NC(=O)c2nnn(-c3nonc3N)c2CN(C)C)s1
-3%	CCOc1ccccc1NC(=O)C(=O)NCCC1=CCCCC1
2%	CC(Sc1ncnc2sccc12)C(=O)Nc1ccc(C(N)=O)cc1 (stereo not given)
5%	COc1cnn(-c2ccc(C)cc2)c(=O)c1SCc1ccccc1
9%	COc1cc(CN2CCN(c3cccc(Cl)c3)CC2)cc(OC)c1OC
1%	Cc1nn2c3ccccc3n(CC(=O)c3cccs3)c2nc1=O

Some values from the results shown:
c1ccc(Cn2cc(CN3CCCCO3)c(-c3ccc4c(c3)OCO4)n2)cc1 | VDR inhibitor: -8%
COc1cc(CN2CCN(c3cccc(Cl)c3)CC2)cc(OC)c1OC | VDR inhibitor: 9%

Source: PubChem BioAssay (National Center for Advancing Translational Sciences (NCATS))
